Marburg entry inh – qHTS for inhibitors of binding or entry into cells for Marburg Virus | Marburg virus pseudotyped entry inhibition, cell reporter; control for the full effect not named in the record; about a third of the inactives were read at about 46 µM | Potency, µM (doses to about 37.8 µM), for the others: at the top dose activity change, negative = inhibition, usual class: inhibitors | actives 1.8% (n = 300,000); active = well fitted inhibition curve with a large enough effect; inconclusive = small, poorly fitted or top-dose-only effect, or effect the other way; inactive = flat fitted curve, though single readings scatter; tested in HEK293 cells; about a fifth of its hits are not listed in these tables; further: on the % scale 0 is the no-effect control and ±100 the full control effect; luciferase read-out
Cruzain inh Det – qHTS Assay for Promiscuous and Specific Inhibitors of Cruzain (with detergent) | purified cruzain, Z-FR-AMC fluorescence, 0.01% Triton | Potency, µM, without a hit: max response, negative = inhibition, hits mostly inhibitors | actives 0.43% (n = 200,000) | AID 1478, 2009;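 further: plate controls were neutral wells for no effect and buffer without enzyme for full effect; nearly all actives have a fitted effect of over 40% in size; top concentration of the series not given in the record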
Target sequence (P25779 123-467 limits assumed): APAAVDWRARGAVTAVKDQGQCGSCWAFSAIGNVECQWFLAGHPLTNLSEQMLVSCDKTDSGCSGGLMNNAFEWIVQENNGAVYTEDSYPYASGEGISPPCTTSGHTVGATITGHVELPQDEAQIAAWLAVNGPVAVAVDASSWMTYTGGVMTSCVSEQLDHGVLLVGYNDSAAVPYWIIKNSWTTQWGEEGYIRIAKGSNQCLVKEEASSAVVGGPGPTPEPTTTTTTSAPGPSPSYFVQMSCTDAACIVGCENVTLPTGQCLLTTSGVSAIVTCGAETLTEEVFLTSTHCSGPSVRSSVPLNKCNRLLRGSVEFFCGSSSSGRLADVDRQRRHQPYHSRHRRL
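Purified cruzain (1.5 nM final) was preincubated with compounds for 15 min at room temperature in 100 mM sodium acetate pH 5.5, 5 mM DTT, 0.01% Triton X-100. Reaction started with 2 uM Z-FR-AMC; AMC fluorescence change over 60 s gave activity.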
2A StopGo – High Throughput Screening for Foot and Mouth Disease Virus Antivirals. human cells with a luciferase reporter of 2A StopGo recoding; control for the full effect not named in the record. Potency, µM (highest dose often 57.9 µM), without a hit: at the highest dose signal change, negative = less light. actives 1.2% (n = 410,000); active = well fitted falling curve with a large enough effect; inconclusive = small, poorly fitted or top-dose-only effect; inactive = no such curve, though single readings can be large or run the other way; tested in HEK293T cells; further: on the % scale 0 is the no-effect control and ±100 the full control effect; nearly all actives have a fitted effect of over 45% in size; luciferase light after 4 h
Cruzain noTriton – qHTS Assay for Promiscuous and Specific Inhibitors of Cruzain (without detergent) | actives 2.3% (n = 200,000) | AID 1476, 2009 | purified cruzain, Z-FR-AMC fluorescence, no detergent | Cruzipain (Trypanosoma cruzi), P25779 | Potency, µM, without a hit: max response, negative = inhibition, usual class: inhibitors;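 further: plate controls were enzyme without inhibitor for no effect and buffer without enzyme for full effect; nearly all actives have a fitted effect of over 40% in size; top concentration of the series not given in the record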
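Purified cruzain at 1.5 nM, pre-incubated 15 min with compound at room temperature in 100 mM sodium acetate pH 5.5, 5 mM DTT, 0.00005% Triton X-100. Reaction started with 2 uM Z-FR-AMC; AMC fluorescence increase over 60 s gives rate.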
RE007 growth inh – qHTS Assay for Inhibitors of the HIV-1 protein Vpr | Potency, µM (series often up to 92.2 µM), for the others: top-dose activity change, negative = less growth | actives 0.21% (n = 360,000) | S. pombe RE007 Vpr strain, BacTiter-Glo ATP luminescence, 24 h; control for the full effect not named in the record; active = well fitted falling curve with a large enough effect; inconclusive = small, poorly fitted or top-dose-only effect; inactive = no such curve, though single readings can be large or run the other way;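 further: on the % scale 0 is the no-effect control and ±100 the full control effect; nearly all actives have a fitted effect of over 50% in size; the assay follows cell death caused by Vpr and the record does not say whether a fall means rescue or toxicity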
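Fission yeast strain RE007, carrying one chromosomally integrated HIV-1 vpr copy, was seeded at OD 0.01 in PMG+AL medium with 23 nL pinned compound. After 24 h at 30 °C and 99% humidity, viability was read by BacTiter-Glo luminescence.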
NS1 inh – qHTS Assay for Inhibitors of Influenza NS1 Protein Function. S. cerevisiae slowed by influenza A NS1, growth recovery by OD600. actives 0.4% (n = 270,000). Potency, µM (top dose mostly 46.1 µM), inactives show top-dose activity, positive = more growth; active means well fitted rising curve with a large enough effect; inconclusive means small, poorly fitted or top-dose-only effect; inactive means no such curve, though single readings can be large or run the other way; further: nearly all actives have a fitted effect of over 50% in size
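Read-out: OD600 growth recovery of NS1-expressing budding yeast. Cells grown overnight at 30C in -URA glucose medium, washed, resuspended and diluted 1:100 in 2% galactose assay medium, pH 6.0. Same strain lacking NS1 served as positive control.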
SARS PLP yeast – qHTS of Yeast-based Assay for SARS-CoV PLP | S. cerevisiae expressing SARS-CoV PLpro, growth rescue; control for the full effect not named in the record | Potency, µM (doses to about 32.9 µM), inactives show at the highest dose activity, positive = growth rescue | actives 0.19% (n = 330,000) | AID 485353, 2010; active means well fitted rising curve with a large enough effect; inconclusive means small, poorly fitted or top-dose-only effect; inactive means no such curve, though single readings can be large or run the other way; further: 0% is about no effect; nearly all actives have a fitted effect of over 55% in size; growth read by luminescence after 48 h
Lassa entry inh – qHTS for Inhibitors of binding or entry into cells for Lassa Virus; Lassa virus pseudotype entry inhibition, cell reporter; control for the full effect not named in the record; Potency, µM (top dose mostly 37.9 µM), for inactives: at the highest dose activity change, negative = inhibition, most hits filed as inhibitors; actives 1.2% (n = 300,000); active means well fitted inhibition curve with a large enough effect; inconclusive means small, poorly fitted or top-dose-only effect, or effect the other way; inactive means flat fitted curve, though single readings scatter; tested in HEK293 cells; further: on the % scale 0 is the no-effect control and ±100 the full control effect; nearly all actives have a fitted effect of over 50% in size; luciferase read-out
Starred values were filed as active, the others as inactive; u = inconclusive; x = not tested or not shown; & = joins results of further samples; [ ] = dose if it differs, or a comment. Unless noted, the call rests on the fitted dose curve; in most records, active means well fitted curve in the direction sought with a large enough effect; inconclusive means small, poorly fitted or top-dose-only effect, or another doubt; inactive means no such curve, though single readings can be large; an effect the other way counts as inactive or inconclusive. Potency means the concentration at half of the fitted maximal effect.

no.	structure	Marburg entry inh	Cruzain inh Det	2A StopGo	Cruzain noTriton	RE007 growth inh	NS1 inh	SARS PLP yeast	Lassa entry inh
1	CCN(CC)S(=O)(=O)c1ccc(N2CCN(c3cccc(OC)c3)CC2)c([N+](=O)[O-])c1	u	-3.4%	u	-11%	x	0%	-8%	-7%
2	CCCCCCC(=O)N1CCN(c2cc3c(cc2F)c(=O)c(C(=O)O)cn3CC)CC1	-3%&-3%&-3%	x	-27%	x	-20%	x	x	20%
3	Cc1ccc(-n2c(SCC(=O)N3CCC(C)CC3)nc3c([nH]c4ccccc43)c2=O)cc1	x	-0.2%	-11%	5%	x	x	x	u
4	Cc1oc(-c2ccccc2F)nc1Cn1c(SCc2cccc(Cl)c2)nc2ccncc21	u	-12%	-23%	-4%	x	x	x	1%[46.1 µM]
5	CC(C)(C)c1ccc(S(=O)(=O)N2CCC(NC(=O)c3ccco3)CC2)cc1	u	x	-7%	x	7%	0%	1%	-5%
6	Cc1oc2c(c1C(=O)NCCCC(=O)O)CCCC2	-6%	3.0%	x	3%	2%	9%	12%	u
7	c1ccc2cc3[nH]c(CN4CCCCC4)nc3cc2c1	x	-22%	22%	-23%	-2%	u	-5%	x
8	NC(=S)Nc1ncc(CCN2CCOCC2)c(-c2ccc(F)cc2)n1	19%[46.1 µM]	x	-4%	x	22%	0%	1%	14%
9	COc1ccc(CCNc2oc(-c3ccccc3OC)nc2C#N)cc1	-1%	-28%	-12%	2%	8%	-87%	-15%	-12%
10	ClCc1nc2ccccc2n1Cc1ccccc1	x	x	u	x	-21%	13%	-1%	x
11	O=C(CCCC(=O)OCC(=O)c1ccc(F)cc1)Nc1cc(C(F)(F)F)ccc1Cl	15%	0.6%	-2%	-1%	u	-4%	4%	1%
12	COCCNC(=O)NC(=O)CN1CCCc2ccccc21	18%	x	-11%	x	-1%	x	-1%	1%
13	COc1ccc(-n2nc(C(=O)NCC(=O)NCc3ccc(F)cc3)c3ccccc3c2=O)cc1	u	x	-21%	x	-13%	-6%	2%	x
14	O=C(Nc1nccs1)C1CCCN(S(=O)(=O)c2cccc3cccnc23)C1 (stereo not given)	x	1.0%	u	3%	4%	-21%	-5%	x
15	CC(NC(=O)CCl)c1ccccc1Br (stereo not given)	u	x	u	x	0%	2%	13%	-27%[46.1 µM]
16	Cc1ccc([N+](=O)[O-])cc1S(=O)(=O)N1CCn2cccc2C1c1ccc(F)c(F)c1 (stereo not given)	x	-5.7%	u	u	x	x	x	2%[46.1 µM]
17	CC(C)OC(=O)CCC(=O)Nc1ccc(F)cc1	15%[46.1 µM]	x	0%	x	-3%	x	-9%	15%[46.1 µM]
18	CCOC(=O)c1cccc(NC(=O)/C=C/c2ccc3c(c2)OCO3)c1	u	-8.0%	40µM*	-11%	-4%	-5%	-31%	u
19	Cn1c(=O)c2c(nc(N3CCOCC3)n2Cc2ccc(Br)cc2)n(C)c1=O	0%[46.1 µM]	-2.6%	-4%	6%	x	x	x	3%[46.1 µM]
20	CC1(OC(=O)CCc2ccccc2)C(=O)C=C2C=C(c3ccsc3)OC=C2C1=O (stereo not given)	-25%&-25%&-25%[14.2 µM]	-2.8%	x	-14%	x	1.3µM*	1%	x
21	CN1CCCN(c2ccc([N+](=O)[O-])cc2)CC1	x	x	-5%	x	-4%	1%	-1%	x
22	O=C(c1ccc(F)cc1F)N1CCN(c2n[nH]c(=O)[nH]c2=O)CC1	1%[46.1 µM]	x	-15%	x	3%	x	5%	-6%[46.1 µM]
23	CN(C)C(CNC(=O)c1cccc(S(=O)(=O)Nc2ccc(Br)cc2)c1)c1ccco1 (stereo not given)	-18%[46.1 µM]	x	5%	x	-13%	x	-1%	-7%
24	CCOC(=O)N1CCN(c2c(N3CCN(c4cc(C)ccc4C)CC3)c(=O)c2=O)CC1	0%	0.6%	0%	17%	14%	-4%	-4%	x
25	CCOC(=O)c1sc2cccc(F)c2c1N	16%	-3.9%	16%	-21%	-13%	-16%	5%	3%
26	Cc1cc(C)c2oc(C(=O)N(Cc3ccccc3)C3CCS(=O)(=O)C3)cc(=O)c2c1 (stereo not given)	u	x	-16%	x	5%	-7%	0%	u
27	COc1ccc(-n2nc3c(c2NC(=O)CCl)CSC3)cc1	u	x	32µM*	x	-4%	-8%	-3%	u
28	COc1cc(Br)c(CCNC(=O)c2ccco2)cc1OC	x	x	-14%	x	-6%	0%	0%	x
29	OCCN1CCN(CC#CCn2c3ccccc3c3ccccc32)CC1	u	-1.3%	-13%	-3%	-23%	-2%	-4%	u
30	Cc1ccc(NC(=O)CSc2nc(=O)n(CCN3CCOCC3)c3c2CCC3)c(C)c1	x	-0.7%	-14%	-7%	x	x	x	23%[46.1 µM]
31	COc1cc(-c2nnc(-c3ccc(N4CCOCC4)cc3)o2)cc(OC)c1OC	u	4.3%	19%	113%	-3%	-1%	-1%	u
32	COc1ccc(CCNC(=O)C2Cc3ccccc3C(=O)O2)cc1 (stereo not given)	-18%[46.1 µM]	x	-2%	x	-1%	x	-7%	4%
33	C#Cc1ccc([C@@H]2C=C(C(=O)NCc3nc4ccccc4[nH]3)O[C@H](OCC)[C@H]2CCCO)cc1	x	x	-24%	x	-11%	-36%	1%	x
34	Cc1c(C(=O)NCc2ccc(S(N)(=O)=O)cc2)oc2ccc(Cl)cc12	u	x	-13%	x	2%	6%	-1%	u
35	COc1ccc(C2C(C(=O)Nc3cc(C)on3)c3ccccc3C(=O)N2C)cc1 (stereo not given)	1%	4.4%	-21%	10%	1%	-15%	9%	6%
36	C=C(C)CN(CC)CCC(=O)Nc1ccc(OC)cc1OC	17%&17%	2.9%	-2%	-9%	5%	-4%	0%	1%
37	CCN(C1CCCCC1)S(=O)(=O)c1ccc(S(=O)(=O)NCc2ccncc2)cc1	u	-0.6%	u	10%	7%	-10%	8%	-31%[14.3 µM]
38	C/C(=N\O)c1ccc(Cl)c(Cl)c1	-24%	x	3%	x	-4%	-6%	-2%	-18%
39	O=C(Nc1ccc(NC(=O)c2cccs2)cc1)c1ccc(Cl)cc1	x	0.0%	-2%	-5%	x	x	x	-2%[46.1 µM]
40	O=C(COC(=O)Cc1cccs1)Nc1ccccc1	21%	-6.0%	15%	-6%	-13%	-14%	-13%	-10%
41	O=C1CCC([N+](=O)[O-])C(c2ccccc2Cl)N1 (stereo not given)	-1%	5.6%	2%	3%	3%	7%	0%	7%
42	Cc1ccc(C(=O)N2CC(=O)Nc3ccc(Br)cc3C2c2ccc(F)cc2)cc1C (stereo not given)	u	-8.0%	0%	u	x	x	x	u
43	C/C(=N\NC(=O)c1ccc(Br)cc1)c1cccc(NC(=O)c2cccnc2)c1	x	x	12%	x	4%	-1%	-2%	x
44	Cc1ccc(NC(=S)N2CCN(C(=O)C3CCCO3)CC2)c(C)c1 (stereo not given)	-6%	3.3%	4%	2%	11%	18%	8%	12%
45	CC(=O)N/C(=N\OCc1ccc(Br)cc1)c1nonc1NC(C)=O	4%	1.7%	-9%	-3%	0%	9%	-14%	23%
46	COC(=O)c1c(NC(=O)c2c(-c3ccccc3Cl)noc2C)sc2c1CCC2	u	-4.6%	-17%	13µM*	-3%	7%	1%	-23%
47	CC(=O)N(CCC(Cc1ccccc1)c1ccc2c(c1)OCO2)Cc1ccc(Cl)cc1 (stereo not given)	u	0.7%	u	-1%	-3%	20%	-6%	u
48	CC12COC3(C(=O)NCCc4ccccc4)CC1CCC32C (stereo not given)	u	-2.2%	41%[activator]	4%	11%	-5%	5%	13%
49	COc1ccc2nnc(-c3ccccc3)n2n1	0%	-5.5%	2%	0%	24%	-10%	15%	4%
50	O=C(COC(=O)Cn1cnc2ccccc2c1=O)Nc1ccc2c(c1)OCO2	-6%[46.1 µM]	x	-12%	x	10%	x	0%	6%[46.1 µM]
51	CCC1(c2ccc(F)cc2)NC(=O)N(CC(=O)N2CCOCC2)C1=O (stereo not given)	u	1.3%	-12%	0%	18%	-2%	10%	3%
52	Cc1cc(NC(=O)c2ccccc2Cl)no1	24%	-1.1%	50%[activator]	-11%	-12%	16%	1%	u
53	CCN(C(=O)CN1CCC(C)CC1)c1c(N)n(Cc2ccccc2)c(=O)[nH]c1=O	17%	x	-19%	x	-6%	x	0%	1%
54	COc1ccc(NC(=O)CCNC(=O)Cn2cnc3sc4c(c3c2=O)CCCC4)cc1OC	19%[46.1 µM]	x	4%	x	9%	2%	8%	-22%[46.1 µM]
55	O=C(N/N=C/c1cc(Cl)ccc1O)c1ccncc1	2%	x	8%	x	-1%	-70%	0%	x
56	CCOc1ccccc1N(CC(=O)NCCSCc1ccco1)S(=O)(=O)c1ccccc1	u	x	-9%	x	2%	16%	3%	u
57	C=CCn1c(CNC(=O)c2cccs2)nnc1SCc1ccc(Cl)cc1Cl	u	-8.3%	-17%	13%	-6%	-9%	u	-18%
58	COc1ccccc1CN1C[C@@H]2C[C@@H](c3[nH]c4c(C)cccc4c3C)N3CCC[C@@]23C1=O	x	x	52%[activator]	x	-15%	1%	-1%	x

Rows are unselected (roughly 4.6% active in at least one column).
